# VACV E9 pol inh: vaccinia E9 polymerase processive synthesis inhibitors, primary screen, biochemical, absorbance; Vaccinia virus DNA polymerase (E9) processive complex; in vitro processive DNA synthesis, absorbance read-out; stronger effect = lower value; some inactives read as strong as hits; normalized absorbance, % (concentration not given with the values); hit rate 0.94% among 46,000;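 active = replicate mean up to 90% and picked by the depositor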;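 also: 100% = median of the test wells of a plate; 100 nL library stock went into each well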
# The depositor's hits bear a star. A portion of the library; the hit share may differ from the screen's.
SMILES,VACV E9 pol inh
O=C(O)CC(NC(=O)C(c1ccccc1)c1ccccc1)c1ccco1 (stereo unspecified),101
CCc1ccc(N(C)S(=O)(=O)c2ccc3[nH]cc(C(=O)N4CCCCCC4)c(=O)c3c2)cc1,108
CC(C)NC(=O)c1ccc2c(c1)S(=O)(=O)c1ccccc1C2=O,101
Cc1ccc2c(cnn2C(=O)CCCC(=O)NC2CCCC(C)C2C)c1 (stereo unspecified),98
COc1ccc(C(=O)Oc2ccc3oc(=O)sc3c2)cc1OC,98
Cc1[nH]c(=O)c(C#N)cc1-c1ccccc1,89
Oc1ccc2ccccc2c1/C=N/c1ncccn1,96
CC1CC(C)N(C(=O)c2cc(-c3ccc(F)cc3)no2)C(C)C1 (stereo unspecified),99
Cc1cc(Br)ccc1OCC(=O)NCCC1=CCCCC1,99
C=CCNS(=O)(=O)c1cccs1,93
CCOC(=O)/C=C(\C)NC1CC(C)(C)NC(C)(C)C1,99
CC(=O)Nc1ccc(-n2sc3c(c2=S)-c2cc(C)ccc2NC3(C)C)cc1,100
COc1ccc(CN2CCN(c3ncnc4scc(-c5ccc(Cl)cc5)c34)CC2)cc1F,100
Cc1c(C)c(C)c2[nH]c(SCc3nc(-c4ccc(Cl)cc4)no3)nc2c1C,97
CC(=O)N=c1sc(S(N)(=O)=O)nn1C,101
S=C(NCc1ccco1)SCc1cn2ccccc2n1,110
Cc1c(C(=O)N2CCCCC2)sc2nc(-c3ccccc3)cn12,100
O=C(NCc1ccco1)c1ccc(-n2c(=S)[nH]c3ccccc3c2=O)cc1,98
Clc1cc(N=Cc2ccccn2)c(Cl)cc1N=Cc1ccccn1,92
CN1CCN(c2ccc(NC(=O)c3cccc4c3OC(C)(C)C4)cc2)CC1,95
CCC1(CC)Cc2ccccc2C(Nc2c(C)n(C)n(-c3ccccc3)c2=O)=N1,99
CN(C)c1cnn(-c2cnc3ccccc3n2)c(=O)c1Cl,101
COCc1nc2ccccc2[nH]1,108
CC(C)CCNC(=O)CN1CCOc2ccccc21,88
NS(=O)(=O)c1cccc(C(=O)N2CCCc3ccccc32)c1,100
CC(=O)OC(COc1ccccc1)Cn1cnc2ccccc21 (stereo unspecified),94
C=CCc1cccc2cc(C(=O)OCC)c(=O)oc12,101
O=C(O)c1cc(=O)c2c(O)cccc2o1,96
O=C(Oc1ccc(C=Nc2ccccc2Cl)cc1)c1cccnc1,100
O=S(=O)(NCCn1ccc2ccccc21)c1ccccc1,98
CCc1nnc(NC(=O)Cc2ccccc2)s1,94
O=C(c1ccc2c(c1)N(Cc1ccccc1)C(=O)CS2=O)N1CCCCC1 (stereo unspecified),98
CCOC(=O)c1c(-c2ccccc2)oc2ccc(N(C(C)=O)S(=O)(=O)c3ccc(OC)cc3)cc12,101
CSc1ncc(Cl)c(C(=O)Nc2c(C(=O)Nc3ccccc3)oc3ccccc23)n1,101
COc1ccc(C(C#N)c2nc3ccccc3nc2C(F)(F)F)cc1 (stereo unspecified),89
CC(=O)NC(c1ccccc1)(c1ccccc1)C(F)(F)F,104
O=C(CCSc1ccccc1)Nc1nc(-c2cccnc2)cs1,98
N#CCSc1nc2nccnc2c(=O)n1Cc1ccccc1Cl,98
CC(Sc1ccc(Cl)cc1)C(=O)NCc1ccncc1 (stereo unspecified),100
COc1ccc2c(Sc3ccccc3)c(C(=O)N3CCCCC3)[nH]c2c1,99

# Some of the entries so far, with each value named.
Compound: CN(C)c1cnn(-c2cnc3ccccc3n2)c(=O)c1Cl
  VACV E9 pol inh: 101

Compound: COCc1nc2ccccc2[nH]1
  VACV E9 pol inh: 108

Compound: CC(C)CCNC(=O)CN1CCOc2ccccc21
  VACV E9 pol inh: 88

Compound: NS(=O)(=O)c1cccc(C(=O)N2CCCc3ccccc32)c1
  VACV E9 pol inh: 100

# Continued.
SMILES,VACV E9 pol inh
c1nc(N2CCCCCC2)c2ccsc2n1,98
CC(C)N1C(=O)CCC1C(=O)NCCc1ccc(Cl)cc1 (stereo unspecified),102
CC1CNCCN1S(=O)(=O)c1cccc2cnccc12 (stereo unspecified),100
CCSc1nnc(-c2c[nH]c3ccccc23)n1CC,100
CCCCC/C=C\C[C@H](O)/C=C/C=C\C/C=C\CCCC(=O)O,100
CCC(CO)NC(=S)Nc1ccsc1C(=O)OC (stereo unspecified),99
COC(=O)c1ccc(NC(=O)c2ccccc2C)cc1OC,108
CCN(CC)CCCC(C)Nc1c2ccc(Cl)cc2nc2ccc(OC)cc12 (stereo unspecified),15*
CN(C)S(=O)(=O)c1ccc(C(=O)NCCC23CC4CC(CC(C4)C2)C3)cc1,98
N#C/C(=C\c1ccc(O)cc1)C(=O)O,101
O=C1/C(=C/c2c[nH]c3ccccc23)CSc2ccccc21,106
Oc1cc(CN2CCCCCC2)c(O)cc1CN1CCCCCC1,100
CSc1ncnc2c1c(-c1ccccc1)cn2-c1ccc(F)cc1,99
O=C(CC1CC2CCC1C2)NC(c1ccccc1)c1ccccc1 (stereo unspecified),108
COc1ccc(C(=O)CSc2nc(N)cc(=O)[nH]2)cc1OC,100
Cc1ccccc1S(=O)(=O)Cc1ccc(C(=O)N2CCc3ccccc32)o1,89
O=c1[nH]c(=O)n(C2CCCCC2)c(O)c1/C=C1\C=Nc2ccccc21,100
CCOc1ccc(S(=O)(=O)Nc2nc3ccccc3nc2Nc2ccccc2)cc1,100
Cc1ccc(-c2n[nH]c(=O)c3ccccc23)cc1,99
COc1ccc(N2Cc3cccc(C(=O)NCC(OC)OC)c3C2=O)cc1,101
CC(=O)N1CCc2cc(S(=O)(=O)CCC(=O)N(C)c3ccc(C)cc3)ccc21,96
Cc1ccc(-n2c(=O)c3c(C)c(C(=O)N(C)C)sc3n(Cc3ccc(F)cc3Cl)c2=O)cc1C,90
CC(NC(=O)c1ccccc1)C(=O)O (stereo unspecified),99
O=C1CC(SCc2nc3ccccc3[nH]2)C(=O)N1c1ccc(Cl)cc1 (stereo unspecified),99
CN(C)C(=O)Oc1cccc(N)c1,99
COC(=O)C(N)CSC1CCCCO1 (stereo unspecified),106
O=C(NCCS(=O)(=O)c1ccc(Br)cc1)c1ccccc1,117
c1ccc(-c2nnc(Cc3ccc4c(c3)OCO4)o2)cc1,87
COc1ccc(C(=O)NC(C)Cc2ccccc2)cc1 (stereo unspecified),101
Cc1cc(C)cc(-n2c(C)cc(/C=C(\C#N)c3ccccc3)c2C)c1,101
CN1C2CCC1CC(NC(=O)CSc1ccc(Cl)cc1)C2 (stereo unspecified),99
CC(=C\c1ccccc1)/C(C)=N/O,104
Cc1ccc(N/C=C2\CCCCC2=O)nc1,99
CCOc1ccc(CN2C(=O)c3ccccc3Sc3ccc(C(=O)N4CCOCC4)cc32)cc1,98
Cc1ccc(C23CC4CC(CC(C(=O)NC(C)C(N)=O)(C4)C2)C3)cc1 (stereo unspecified),95
C=CCNC(=O)N1CCc2[nH]c3ccc(F)cc3c2C1,99
CN1/C(=C/C(=O)c2cccs2)C(C)(C)c2ccccc21,92
Cc1cc(C)c(NC(=O)c2ccncc2)c(C)c1,93
CCOC(=O)c1ccc(CNCc2ccccc2)cc1,95
CCC(C)NC(=O)c1cn(CC)c(=O)c2cc(OC)c(OC)cc12 (stereo unspecified),101
O=C(Nc1cccc(-c2nc3cccnc3s2)c1)C1CC1,100
Cc1ccc(-c2cc(C(=O)Nc3cccc4c3CCCC4)[nH]n2)cc1C,106
O=C(O)CC1C=CS(=O)(=O)C1 (stereo unspecified),99
O=C1CC(c2ccccc2)Sc2ccccc2N1Cc1ccccc1 (stereo unspecified),77
CCCOc1nc(-c2ccccc2)cc(-c2ccccc2)n1,100
CC1(C)CC2CC(C)(CN2C(=O)CN2C(=O)c3ccccc3C2=O)C1 (stereo unspecified),93
CCN(CC)C(=O)c1ccc2c(c1)NC(=O)/C(=C/c1ccccc1)S2,102
COC(=O)[C@H](c1ccccc1Cl)N1CCc2sccc2C1,100
Cc1sc(=[N+]2CCCCC2)sc1SCCC(=O)O,100
O=C(NCCc1ccccc1)c1cc2ccccc2oc1=O,100
# Continuation:
SMILES,VACV E9 pol inh
CCCCC/C=C/C=C1/C(=O)C=C[C@@H]1C/C=C\CCCC(=O)O,100
COc1ccc(-c2noc(-c3ccc(OC)cc3)n2)cc1,100
CC(NC(=O)CSc1cccc[n+]1[O-])c1ccccc1 (stereo unspecified),109
O=C(NCc1cccc(Cl)c1)c1nc2c(nnn2Cc2ccccc2)c(=O)[nH]1,83
Cc1ccc(C)c(Cn2c(C)nc3c(sc(=S)n3-c3ccccc3)c2=O)c1,91
COC(=O)c1ccccc1-c1ccc(/C=C2\SC(=O)NC2=O)o1,100
CCC(=O)NCCc1nc2ccccc2n1C,101
CCc1ccc(C(=O)CSc2ccccc2C(=O)O)cc1,98
COc1cc(C(=O)NCCC(=O)NC2CCCc3ccccc32)cc(OC)c1OC (stereo unspecified),88
Cc1nn2c3ccccc3n(C)c2c1C(=S)Nc1ccccc1,98
CS(=O)(=O)N(Cc1ccccc1)c1ccccc1C(=O)NC1CCCC1,88
Cc1nc2c(C)cccn2c1C(=O)Nc1ccc(F)cc1F,102
COc1ccc(Nc2nc(N)nc(CSC(=S)N(C)C3CCCCC3)n2)cc1,77
O=C(N=C1c2ccccc2CN1c1ncccn1)c1cccc(F)c1,100
NC(=O)c1ccccc1C(=O)c1ccccc1,99
CCOC(=O)c1cnc2c(C)cc(C)cc2c1Nc1ccc(S(=O)(=O)Nc2ncccn2)cc1,100
c1ccc(CN2CCN(Cc3ccccc3)C2c2ccco2)cc1,101
C=C(C)Cn1c(SCC(=O)NN)nc2ccccc2c1=O,100
NCCSc1c[nH]c2ccccc12,88
O=C(OCc1sccc1Oc1ccccc1)c1ccc(Cl)cc1,100
CCc1ccc(NC(=O)c2ccc(NC(=O)CCS(=O)(=O)c3cccs3)cc2)cc1,103
CCNC(=O)c1ccc2nc(N3CCCCC3)sc2c1,92
COc1cc(C(=O)Nc2sccc2C#N)cc(OC)c1OC,100
CCc1ccc(NC(=O)N(Cc2ccco2)C(C)c2cccs2)cc1 (stereo unspecified),108
O=C(CCSc1ccc2ccccc2n1)NCCc1ccccc1,100
O=C(NCc1cccnc1)c1cc2ccccc2oc1=O,100
COc1cccc(/C(O)=C2\C(=O)C(=O)N(CCN(C)C)C2c2ccc(C(C)C)cc2)c1 (stereo unspecified),95
CCCC(=O)O[C@]1(C(=O)CO)CCC2[C@@H]3CCC4=CC(=O)CC[C@]4(C)C3[C@@H](O)C[C@@]21C (stereo partly specified),100
O=C(CCSCc1ccccc1Cl)NCc1ccccc1Cl,102
Clc1ccc2oc(-c3ccccc3)cc(=NCC3CCCO3)c2c1 (stereo unspecified),59*
Cc1ccc(-c2nc(C#N)c(NCc3ccco3)o2)cc1,102
O=C1c2ccccc2NC(c2cccc(O)c2)N1O (stereo unspecified),96
c1cn2cc(CSC3CCCCC3)nc2s1,106
COc1ccc(-c2nc(SCC(=O)c3ccc(Cl)cc3)n[nH]2)cc1,97
N#Cc1ccc(S(=O)(=O)Nc2ccccc2Sc2nc3ccc(Cl)cc3s2)cc1,92
CCN(CC)S(=O)(=O)N1CCCC(C(=O)NCc2ccc(C)cc2)C1 (stereo unspecified),104
Cc1ccc(C(=O)OCC2COc3ccccc3O2)cc1 (stereo unspecified),108
COc1ccc(C(=O)NCCc2nc3ccccc3n2C)cc1OC,99
OCc1ccccc1N=Cc1cccnc1,102
Cc1cc(OCC(O)CN2CCN(Cc3ccc4c(c3)OCO4)CC2)cc(C)c1Cl (stereo unspecified),100
COc1ccc2c(c1)CCC1C2CCC2(C)C(=O)CCC12 (stereo unspecified),103
COc1ccc(-c2noc(CSc3nnc(CCc4ccccc4)n3C)n2)cc1OC,103
O=C1N=c2ccccc2=C1c1c(O)n(-c2cccc(Br)c2)[nH]c1=O,101
COC(=O)c1ccc(C(=O)Nc2cc(C)on2)cc1,100
Nc1ccc(N2CCNCC2)cc1,88
Cc1ccc2c(c1)N(CCC(=O)N1CCC3(CC1)OCCO3)C(=O)C(C)O2 (stereo unspecified),103
CCOC(=O)C1=C(NC(C)C)C(=O)N(N(C)C)C1,100
O/N=C/c1ccc(-c2cc(C(F)(F)F)cc(C(F)(F)F)c2)o1,85
CC1CCC(C)N1c1cc(C(F)(F)F)cc(C(F)(F)F)c1 (stereo unspecified),96
COC(=O)c1ccc(C)c(NC(=O)C(C)NC(=O)C(c2ccccc2)c2ccccc2)c1 (stereo unspecified),83

# Retrieved by compound from above:
SMILES,VACV E9 pol inh
O=C1N=c2ccccc2=C1c1c(O)n(-c2cccc(Br)c2)[nH]c1=O,101
COC(=O)c1ccc(C(=O)Nc2cc(C)on2)cc1,100
COC(=O)c1ccc(C)c(NC(=O)C(C)NC(=O)C(c2ccccc2)c2ccccc2)c1 (stereo unspecified),83
CC1CCC(C)N1c1cc(C(F)(F)F)cc(C(F)(F)F)c1 (stereo unspecified),96
Cc1ccc2c(c1)N(CCC(=O)N1CCC3(CC1)OCCO3)C(=O)C(C)O2 (stereo unspecified),103
COc1ccc2c(c1)CCC1C2CCC2(C)C(=O)CCC12 (stereo unspecified),103
Nc1ccc(N2CCNCC2)cc1,88
O/N=C/c1ccc(-c2cc(C(F)(F)F)cc(C(F)(F)F)c2)o1,85
CCOC(=O)C1=C(NC(C)C)C(=O)N(N(C)C)C1,100
COc1ccc(-c2noc(CSc3nnc(CCc4ccccc4)n3C)n2)cc1OC,103

# Next entries:
SMILES,VACV E9 pol inh
COc1ccc(OC)c(NC(=O)CC2Sc3ccccc3NC2=O)c1 (stereo unspecified),88
Cn1c(=O)n(CCOc2ccccc2)c2ccccc21,98
COCC(C)Nc1ncnc2c1c(-c1ccccc1)cn2-c1ccccc1 (stereo unspecified),98
CCOC(=O)CSc1ncc(C(F)(F)F)cc1Cl,114
COc1ccc(-c2cc(NC(=O)Nc3ccccc3)n(-c3ccccc3)n2)cc1,100
CCCN(CCC)C(=O)c1cc(S(=O)(=O)N2CCc3ccccc32)cn1C,95

# Screens deposited in PubChem BioAssay by ICCB-Longwood Screening Facility, Harvard Medical School.
